rRNA inh HTS – inhibitors of bacterial rRNA selective over humanized ribosomes; E. coli WT GFP vs humanized-ribosome RFP mutants, fluorescence, 24 h; active compounds read low; DMSO median 0, no signal -100; GFP signal change (wild-type ribosome), % (test concentration not listed); 1.6% of 350,000 active;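 active = significant combined selectivity score with lowered wild-type GFP, culture density cut under 30%, mutant RFP and density less affected; inactive = any of these conditions unmet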; note: one replicate is shown; some compounds called inactive have numbers as strong as hits
rRNA inh HTS OD600 – second read-out of rRNA inh HTS, no call of its own (marks repeat the call); OD600 change, %; measured here: OD600 growth;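 optical density of the mix in the first replicate; 0 = DMSO median and -100 = no signal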
rRNA inh HTS RFP – recorded beside rRNA inh HTS, whose call it bears; RFP signal change, %; measured here: RFP humanized mutant strains;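 first replicate; 0 = DMSO median and -100 = no signal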
The depositor's hits bear a star. Some of the compounds tested; rates above refer to the full screens.

SMILES	rRNA inh HTS	rRNA inh HTS OD600	rRNA inh HTS RFP
CO[C@H]1CN(C)C(=O)c2cc(NC(=O)Nc3cccc(F)c3)ccc2OC[C@H](C)N(C(=O)C2CC2)C[C@@H]1C	-2	-2	0.2
CO[C@H]1CN(C)C(=O)c2cc(NC(C)=O)ccc2OC[C@H](C)NC[C@H]1C	1	3	0.2
C[C@@H]1CN([C@H](C)CO)C(=O)c2cc(C3=CCCC3)cnc2O[C@@H]1CN(C)C(=O)c1ccccn1	5	-1	0.0
CO[C@H]1CN(C)C(=O)c2ccc(NC(=O)c3cnccn3)cc2OC[C@@H](C)N(C)C[C@H]1C	3	3	-0.6
CCCNC(=O)Nc1ccc2c(c1)C(=O)N(C)C[C@H](OC)[C@H](C)CN(Cc1ccccc1)[C@H](C)CO2	2	1	-1.1
CNC[C@H]1Oc2ccc(NS(=O)(=O)c3ccc(OC)cc3)cc2CC(=O)N([C@H](C)CO)C[C@H]1C	2	5	1.4
CCC(=O)N1[C@H](CN(C)C(=O)c2ccccc2F)[C@@H](c2ccccc2)[C@@H]1CO	3	-6	-0.3
CCCC(=O)Nc1ccc2c(c1)OC[C@H](C)N(S(=O)(=O)c1cn(C)cn1)C[C@@H](C)[C@H](OC)CN(C)C2=O	1	5	-1.4
COc1ccc2c3c(n(C)c2c1)[C@H](CO)N(CC1CC1)CC31CCN(S(=O)(=O)c2cccs2)CC1	-4	-21	-2.2
O=C(NC1CCCCC1)[C@@H]1[C@@H](CO)[C@@H]2Cn3c(ccc(-c4ccccc4)c3=O)[C@H]1N2	1	6	2.9
C[C@H]1CN(C)C(=O)c2cccc(N(C)C)c2O[C@H]1CN(C)C(=O)OC(C)(C)C	1	-2	-1.6
CCOC(=O)c1sc(NC(=O)CCCCCN2C(=O)c3cccc4cccc(c34)C2=O)nc1C	0	11	-4.7
C[C@@H]1CN([C@H](C)CO)S(=O)(=O)c2ccc(Br)cc2O[C@@H]1CN(C)C(=O)C1CCCCC1	6	12	-0.4
O=C(c1ccccn1)N1C[C@H]2[C@@H](c3ccccc31)[C@@H](CO)N2CC1CCCC1	3	4	0.3
C[C@H]1CN(C)C(=O)Cc2cc(N(C)C)ccc2O[C@@H]1CN(C)C	0	4	0.0
CC(=O)N(C)C[C@H]1Oc2ccc(N(C)C)cc2C(=O)N(C)C[C@H]1C	0	0	-0.6
C[C@H]1CN([C@@H](C)CO)C(=O)c2cc(/C=C/c3ccccc3)cnc2O[C@@H]1CN(C)C(=O)C1CC1	-2	4	-2.6
Cc1noc(C)c1NC(=O)Nc1cccc2c1O[C@@H](CN(C)S(=O)(=O)c1ccccc1)[C@@H](C)CN([C@@H](C)CO)C2=O	2	12	-1.5
C[C@H]1CN([C@@H](C)CO)C(=O)Cc2cc(NC(=O)Cc3cn(C)c4ccccc34)ccc2O[C@@H]1CN(C)S(=O)(=O)c1ccc(Cl)cc1	-7	4	-2.2
CC(=O)Nc1cccc2c1O[C@H](CN(C)S(C)(=O)=O)[C@H](C)CN(C)C2=O	-3	2	0.2
C[C@@H]1CN([C@@H](C)CO)C(=O)c2cc(-c3ccc(F)cc3)cnc2O[C@H]1CN(C)C(=O)Nc1ccc(F)cc1	0	-4	0.5
C[C@@H]1CN([C@@H](C)CO)C(=O)c2cc(NC(=O)c3ccccc3)ccc2O[C@@H](C)CCCCO[C@H]1CN(C)S(=O)(=O)c1ccc(F)cc1	-4	-3	1.4
C[C@@H]1CN([C@H](C)CO)C(=O)Cc2cc(NC(=O)Nc3ccccc3)ccc2O[C@@H]1CN(C)CC1CC1	-9	-18	-0.5
CN1c2ccc(Br)cc2[C@@H]2[C@@H](CCN2C(=O)CN2CCOCC2)[C@H]1CO	10	28	0.5
COCC(=O)N(C)C[C@H]1[C@@H](c2ccccc2)[C@H](CO)N1C(=O)Cc1ccncc1	4	9	0.3
CO[C@H]1CN(C)C(=O)c2ccc(NC(=O)c3ccc(F)cc3)cc2OC[C@H](C)N(C(=O)CN(C)C)C[C@H]1C	0	0	0.5
C[C@@H]1CN([C@@H](C)CO)S(=O)(=O)c2ccc(C#CC3CC3)cc2O[C@@H]1CN(C)Cc1cncnc1	-5	-5	2.4
O=C1N[C@H](Cc2ccccc2)COCc2cn(nn2)CC[C@H]1Cc1cccc(Cl)c1	-2	-2	-4.2
CC(C)[C@H]1CC=CC[C@H](C)Oc2ccccc2C(=O)N(C)[C@H](C(C)C)C(=O)N1 (mixture of isomers)	-1	3	-1.7
CO[C@H]1CN(C)C(=O)c2ccc(NC(C)=O)cc2OC[C@H](C)N(Cc2cccnc2)C[C@H]1C	0	-2	-1.1
CC(=O)N1[C@H](CO)[C@@H](c2ccccc2)[C@@H]1CN(C(=O)c1ccccc1)C(C)C	1	4	-0.6
CCCN1C[C@H](C)[C@@H](OC)CN(C)C(=O)c2ccc(NC(=O)CC)cc2OC[C@H]1C	2	0	-3.3
CNC[C@@H]1OCCCC[C@@H](C)Oc2ccc(NC(=O)Nc3ccc(F)cc3)cc2C(=O)N([C@@H](C)CO)C[C@H]1C	5	3	0.6
COc1ccc([C@@H]2C/C=C\C[C@@H](c3ccc(F)cc3)NC(=O)CCC(=O)N2)c(OC)c1	-4	-8	-1.5
CO[C@H]1CN(C)C(=O)c2ccc(NS(=O)(=O)c3ccccc3)cc2OC[C@@H](C)N(C)C[C@@H]1C	0	0	-2.6
COc1ccc2c3c(n(C)c2c1)[C@H](CO)NCC31CN(S(=O)(=O)c2cccc(C)c2)C1	-1	-33	8.2

Profiles, looked up by structure:
CCCN1C[C@H](C)[C@@H](OC)CN(C)C(=O)c2ccc(NC(=O)CC)cc2OC[C@H]1C is listed as rRNA inh HTS: 2; rRNA inh HTS OD600: 0; rRNA inh HTS RFP: -3.3
CCC(=O)N1[C@H](CN(C)C(=O)c2ccccc2F)[C@@H](c2ccccc2)[C@@H]1CO is listed as rRNA inh HTS: 3; rRNA inh HTS OD600: -6; rRNA inh HTS RFP: -0.3

(next part)
SMILES	rRNA inh HTS	rRNA inh HTS OD600	rRNA inh HTS RFP
C[C@@H]1CN([C@H](C)CO)S(=O)(=O)c2ccc(-c3ccccc3)cc2O[C@H]1CN(C)Cc1ccccc1	-2	-11	1.2
CN(C)CC#Cc1ccc([C@H]2[C@@H](CO)N3C(=O)CN(C(=O)Cc4cccnc4)C[C@@H]23)cc1	5	0	-0.6
C[C@H](CO)N1C[C@H](C)[C@H](CN(C)C(=O)Nc2ccc(C(F)(F)F)cc2)Oc2ccc(NC(=O)c3ccncc3)cc2CC1=O	4	14	1.8
C[C@H]1CCCCO[C@@H](CN(C)C(=O)Nc2ccc(F)cc2)[C@@H](C)CN([C@@H](C)CO)C(=O)c2cc(N(C)C)ccc2O1	-1	-3	2.4
C[C@@H]1CN([C@H](C)CO)C(=O)c2ccccc2-c2ccccc2CO[C@@H]1CN(C)CC1CC1	2	9	0.6
CN1C[C@@H]2[C@@H]3C(=O)N(C)C(=O)[C@@H]3[C@](C)(C1=O)N2C(=O)c1ccccc1	24	12	-0.8
O=C(NC[C@H]1N[C@H](CO)[C@@H]1c1ccc(-c2cncnc2)cc1)C1CCC1	-1	-9	0.7
CNC[C@@H]1OCCCC[C@H](C)Oc2ccc(NC(=O)Nc3cccc4ccccc34)cc2C(=O)N([C@@H](C)CO)C[C@@H]1C	3	0	-0.8
CC(C)NC(=O)Nc1ccc2c(c1)CC(=O)N(C)C[C@H](C)[C@@H](CN(C)C(=O)NC(C)C)O2	-1	0	-0.3
CC(C)NC(=O)Nc1ccc2c(c1)C(=O)N([C@@H](C)CO)C[C@@H](C)[C@H](CN(C)S(=O)(=O)c1cccs1)O2	-2	-5	-2.7
C[C@@H]1CCCCO[C@H](CN(C)C(=O)c2ccncc2)[C@@H](C)CN([C@H](C)CO)C(=O)c2cc(N(C)C)ccc2O1	3	4	-4.5
C[C@H](CO)N1C[C@H](C)[C@@H](CN(C)Cc2ccc(O)cc2)OCc2cn(nn2)CCCC1=O	3	5	1.8

By substructure, the compounds so far with a Cl atom.
SMILES	rRNA inh HTS	rRNA inh HTS OD600	rRNA inh HTS RFP
C[C@H]1CN([C@@H](C)CO)C(=O)Cc2cc(NC(=O)Cc3cn(C)c4ccccc34)ccc2O[C@@H]1CN(C)S(=O)(=O)c1ccc(Cl)cc1	-7	4	-2.2
O=C1N[C@H](Cc2ccccc2)COCc2cn(nn2)CC[C@H]1Cc1cccc(Cl)c1	-2	-2	-4.2

Next part.
SMILES	rRNA inh HTS	rRNA inh HTS OD600	rRNA inh HTS RFP
C[C@@H]1CCCCO[C@H](CN(C)CC2CCCCC2)[C@H](C)CN([C@H](C)CO)C(=O)c2cc(NC(=O)CCCN(C)C)ccc2O1	-1	0	-0.9
C[C@H](CO)N1C[C@H](C)[C@H](CN(C)Cc2ccc(F)cc2)Oc2ncc(-c3ccc(F)cc3)cc2C1=O	2	-6	3.5
CO[C@H]1CN(C)C(=O)c2cc(NC(=O)NC(C)C)ccc2OC[C@H](C)N(CCC(F)(F)F)C[C@@H]1C	-6	-9	0.8
CC(C)[C@@H]1C(=O)N[C@H](c2cccc(Cl)c2)CC=CC[C@@H](C)Oc2ccccc2C(=O)N1C (mixture of isomers)	-3	3	0.7
C/C=C/c1ccc([C@@H]2[C@@H](CO)N(C(C)=O)[C@H]2CN(CC)C(=O)CC)cc1	2	-1	1.0
CC(C)NC(=O)N(C)C[C@@H]1Oc2c(NS(C)(=O)=O)cccc2C(=O)N(C)C[C@H]1C	2	0	-2.2
O=C1N[C@H](Cc2ccccc2)COCc2cn(nn2)CC[C@@H]1Cc1cccc(F)c1	7	1	-2.5
CN1C(=O)c2cc(NC(=O)Cc3ccccc3)ccc2OC[C@H]2O[C@@H](CC(=O)NCc3ccc(Cl)cc3)CC[C@@H]21	-7	-17	3.6
C/C=C/c1cnc2c(c1)C(=O)N([C@H](C)CO)C[C@H](C)[C@@H](CN(C)C(=O)C1CCC1)O2	1	7	-0.1
COc1ccc(NC(=O)N(C)C[C@@H]2Oc3ncc(-c4ccccc4)cc3C(=O)N([C@H](C)CO)C[C@@H]2C)cc1	-2	-5	-2.3
CC(C)NC(=O)N1CCCCN2[C@H](CO)[C@H](c3ccc(C4=CCCC4)cc3)[C@@H]2C1	3	9	-1.5
CCS(=O)(=O)Nc1ccc2c(c1)C(=O)N(C)[C@@H]1CC[C@@H](CC(=O)N[C@H]3CCN(Cc4ccccc4)C3)O[C@H]1CO2	-1	3	-3.1
CO[C@H]1CN(C)C(=O)c2ccc(NC(=O)NC(C)C)cc2OC[C@@H](C)N(Cc2cncnc2)C[C@H]1C	1	7	-3.8
C[C@H]1CN([C@@H](C)CO)S(=O)(=O)c2ccc(-c3ccc(F)cc3)cc2O[C@H]1CN(C)C(=O)C1CC1	-6	-10	0.1
C[C@H]1CN(C)C(=O)Cc2ccccc2O[C@H]1CN(C)S(C)(=O)=O	3	3	1.5
C[C@@H]1CN([C@@H](C)CO)C(=O)c2cc(-c3cccnc3)cnc2O[C@H]1CN(C)C(=O)C1CCCCC1	1	1	-0.2
C[C@@H]1CN([C@H](C)CO)C(=O)c2c(c3ccccc3n2C)-c2ccccc2CO[C@@H]1CN(C)Cc1ccccc1	-9	-33	25
Cc1noc(C)c1S(=O)(=O)N(C)C[C@@H]1Oc2ccc(NC(=O)Nc3ccccc3)cc2CC(=O)N([C@@H](C)CO)C[C@H]1C	-1	-4	0.9
CNC[C@@H]1Oc2ccc(NS(C)(=O)=O)cc2C(=O)N(C)C[C@H]1C	3	7	-0.3
C[C@@H]1CN([C@H](C)CO)C(=O)CCCn2cc(nn2)CO[C@@H]1CN(C)Cc1ccc(-c2ccccc2)cc1	-3	-4	2.8
CC(=O)N(C)C[C@H]1Oc2ncc(C#Cc3ccc(F)cc3)cc2C(=O)N([C@H](C)CO)C[C@@H]1C	-1	4	-0.1
COCC#Cc1cnc2c(c1)C(=O)N([C@@H](C)CO)C[C@@H](C)[C@@H](CN(C)Cc1ccc(-c3ccccc3)cc1)O2	-4	-7	14
Cc1noc(C)c1NC(=O)N1C[C@@H](O)COC[C@H]2O[C@@H](CC(=O)N[C@H]3CCN(Cc4ccccc4)C3)CC[C@@H]21	-4	3	2.9
CCCNC(=O)Nc1ccc2c(c1)C(=O)N(C)C[C@@H](OC)[C@H](C)CN(CC1CCCC1)[C@@H](C)CO2	0	-4	2.2
CC(C)CC#Cc1ccc([C@@H]2[C@@H](CO)N3C(=O)CN(C(=O)NC(C)C)C[C@H]23)cc1	-5	-2	-3.9
CO[C@@H]1CN(C)C(=O)c2ccc(NC(C)=O)cc2OC[C@@H](C)N(Cc2cncnc2)C[C@@H]1C	-1	3	0.7
O=C(NC[C@@H]1[C@@H](c2ccccc2)[C@@H](CO)N1Cc1ccccn1)C1CCC1	5	-1	-0.3
CCCNC(=O)N1[C@H](CO)[C@@H]2c3ccccc3N(C(=O)Nc3ccccc3)C[C@@H]21	-2	10	-1.9
O=C(C1CCC1)N1CC(=O)N2[C@H](CO)[C@H](c3ccc(C#Cc4cccc(F)c4)cc3)[C@H]2C1	-42	-72	4.1
CO[C@H]1CN(C)C(=O)c2ccc(NC(=O)C3CC3)cc2OC[C@@H](C)N(CC2CCOCC2)C[C@@H]1C	1	-1	-0.6

Structures above that contain bromine, in the order listed:
SMILES	rRNA inh HTS	rRNA inh HTS OD600	rRNA inh HTS RFP
C[C@@H]1CN([C@H](C)CO)S(=O)(=O)c2ccc(Br)cc2O[C@@H]1CN(C)C(=O)C1CCCCC1	6	12	-0.4
CN1c2ccc(Br)cc2[C@@H]2[C@@H](CCN2C(=O)CN2CCOCC2)[C@H]1CO	10	28	0.5

Screening results from PubChem BioAssay.
